GALR2 agonist: agonists of human galanin receptor 2 (GALR2); O43603; GALR2-expressing cells, agonist activation read-out; activation, %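 (tested at 5 µM)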; 0.48% of 140,000 active; AID 803;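 active = above mean plus 3 SD of all compounds, about 5% in these data, not always enough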;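 also: 0% = vehicle buffer wells and 100% = reference agonist at full effect; tested in CHO reporter cells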
Target sequence (O43603 whole entry, looked up): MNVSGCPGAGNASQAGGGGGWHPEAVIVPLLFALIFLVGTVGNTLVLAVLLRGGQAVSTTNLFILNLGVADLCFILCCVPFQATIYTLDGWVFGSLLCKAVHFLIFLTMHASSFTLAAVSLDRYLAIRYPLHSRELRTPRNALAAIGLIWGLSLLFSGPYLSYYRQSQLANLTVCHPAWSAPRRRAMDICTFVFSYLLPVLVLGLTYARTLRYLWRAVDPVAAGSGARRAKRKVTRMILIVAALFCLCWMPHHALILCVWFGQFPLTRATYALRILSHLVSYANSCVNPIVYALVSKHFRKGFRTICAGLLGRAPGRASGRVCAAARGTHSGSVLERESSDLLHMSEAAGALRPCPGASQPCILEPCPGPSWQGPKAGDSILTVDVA
HSV replic up: HSV replication enhancement | 0.005% of 220,000 active | HSV replication augmentation in cells, fold increase | maximum fold increase | AID 1956;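 active = peak rise of 1.5-fold or more in the series; inconclusive = self-fluorescent or not available for retest; tested in PC3 cells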;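 also: first round at 10 µM; read as green reporter fluorescence; hits show the peak of a series up to 25 µM; 1 = signal of infected wells without compound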
RGS16-Gao HTS: modulates binding between human RGS16 and Galphao; O15492+P09471; bead-based flow cytometry RGS16-Galphao binding, fluorescence; actives lie on both sides; binding response (% of control), % at 10 µM; 0.38% of 220,000 active;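 active = below 25% or above 175%, edge rows of some plates excepted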;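 also: Galphao activated by GDP with aluminum fluoride before binding; 100% = wells without compound and 0% = beads without RGS; some results beyond the cut were filed as inactive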
Target sequence (O15492 whole entry, looked up): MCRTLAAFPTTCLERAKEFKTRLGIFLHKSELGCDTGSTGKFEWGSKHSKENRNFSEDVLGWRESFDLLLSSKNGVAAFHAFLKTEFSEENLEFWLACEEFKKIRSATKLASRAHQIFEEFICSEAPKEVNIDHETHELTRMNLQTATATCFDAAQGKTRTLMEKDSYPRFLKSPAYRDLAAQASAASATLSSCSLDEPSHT
Target sequence (P09471 whole entry, looked up): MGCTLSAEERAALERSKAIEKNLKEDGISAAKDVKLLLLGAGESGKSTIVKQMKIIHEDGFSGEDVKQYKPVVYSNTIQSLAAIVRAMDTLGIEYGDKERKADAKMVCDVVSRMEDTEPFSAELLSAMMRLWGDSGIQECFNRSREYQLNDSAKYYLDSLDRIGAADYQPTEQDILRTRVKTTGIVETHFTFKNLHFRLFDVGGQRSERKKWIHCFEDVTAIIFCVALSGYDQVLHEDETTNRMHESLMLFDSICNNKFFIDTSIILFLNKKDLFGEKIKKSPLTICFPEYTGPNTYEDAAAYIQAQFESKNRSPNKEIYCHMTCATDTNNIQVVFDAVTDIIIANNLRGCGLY
Insulin prom inh: TRM-6 insulin promoter activity inhibition. 0.9% of 130,000 active. TRM-6 cells (human fetal islet line), insulin promoter-eGFP reporter, imaging; reporter expression induced with tamoxifen. inhibition, % at 2 µM;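 active = inhibition above the mean plus 3 SD, with well images judged a real hit on visual review, cut at about 60% in these data, passing the limit was not always enough; inconclusive = inhibition over the cutoff but images rejected on review; inactive = inhibition not above the cutoff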
PKD1 inh: inhibitors of human PKD1 kinase | Q15139 | PKD1 kinase fluorescence polarization assay | inhibition, %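 (about 10 µM by stock and volumes)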 | 0.056% of 200,000 active;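 active = inhibition of 50% or more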;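 also: controls were vehicle for no effect and a reference inhibitor for full effect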
Insulin prom inh cell count: second read-out of Insulin prom inh, no call of its own (marks repeat the call); normalized cell count, %; measured here: cell count, toxicity; reference of the scale not given here;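 cells exposed to compound for 48 h; stained nuclei by imaging scaled within each plate; lower means fewer cells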
HSV replic up primary fold: also measured in HSV replic up; calls as there; fold increase; compound at 10 µM; measured here: primary screen fold increase 10 uM; tested in PC3 cells;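 GFP signal in the first replicate; 1 = infected wells without compound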
Starred values were filed as active, the others as inactive; i = inactive; ? = inconclusive; nt = no result given; & = joins results of further samples.

compound | GALR2 agonist | HSV replic up | HSV replic up primary fold | RGS16-Gao HTS | Insulin prom inh | Insulin prom inh cell count | PKD1 inh
COc1cc(/C=N/NC(=O)c2ccc3ccccc3c2)ccc1Oc1ccc([N+](=O)[O-])cn1 | -0.9 | i | 0.89 | 104.4 | -3.6 | 108.0 | 17.5
O=C(CCc1ccccc1)NNC(=O)c1ccc(F)cc1 | nt | i | 0.95 | 103.2 | 7.1 | 93.2 | 5.5
COc1cccc(N(CC(=O)NCCSc2ccccc2)S(C)(=O)=O)c1 | 0.5 | i | 0.88 | 95.9 | -33.3 | 78.2 | -8.3
O=C(Nc1nc(-c2cccs2)cs1)c1cc2ccccc2oc1=O | -1.9 | nt | nt | 106.7 | nt | nt | -9.1
Fc1ccccc1C1c2[nH]c3ccccc3c2CCN1Cc1ccoc1 (centres undefined) | nt | i | 1.01 | 101.5 | nt | nt | 6.0
O=C1C2Sc3[nH]c(=O)sc3C(c3cc([N+](=O)[O-])ccc3O)C2C(=O)N1c1ccccc1 (centres undefined) | nt | i | 0.8 | 102.5 | nt | nt | nt
CCCCOc1ccc(C(=O)NCC(=O)OC2CCOC2=O)cc1 (centres undefined) | -0.2 | nt | nt | 97.9 | -23.3 | 125.9 | 2.5
CCOC(=O)c1c(CN2CCOCC2)n(C)c2cc(Br)c(O)c(CN(C)C)c12 | -0.1&-1.0 | i | 1.03&0.94 | 93.5&77.4 | -37.1 | 124.4 | 0.1&-16.3
CCN(CC)S(=O)(=O)c1ccc(C(=O)NCCN(C)C)cc1 | nt | i | 0.92 | 101.9 | nt | nt | -1.2
Cc1noc(C)c1C(=O)Nc1nnc(-c2ccccc2)s1 | -0.2 | i | 0.95 | 98.6 | nt | nt | -2.0
O=C(c1ccc(S(=O)(=O)N2CCOCC2)cc1)N1CCN(c2ccccc2F)CC1 | -1.1 | i | 1.17 | 100.3 | -181.8 | 78.5 | -6.1
CCOC(=O)c1ccc(NC(=O)COc2ccc(CNCCO)cc2OCC)cc1 | nt | i | 0.94 | 103.4 | nt | nt | -2.8

Molecules shown so far that have two or more sulfur atoms:
compound | GALR2 agonist | HSV replic up | HSV replic up primary fold | RGS16-Gao HTS | Insulin prom inh | Insulin prom inh cell count | PKD1 inh
COc1cccc(N(CC(=O)NCCSc2ccccc2)S(C)(=O)=O)c1 | 0.5 | i | 0.88 | 95.9 | -33.3 | 78.2 | -8.3
O=C(Nc1nc(-c2cccs2)cs1)c1cc2ccccc2oc1=O | -1.9 | nt | nt | 106.7 | nt | nt | -9.1
O=C1C2Sc3[nH]c(=O)sc3C(c3cc([N+](=O)[O-])ccc3O)C2C(=O)N1c1ccccc1 (centres undefined) | nt | i | 0.8 | 102.5 | nt | nt | nt

Next structures follow.
compound | GALR2 agonist | HSV replic up | HSV replic up primary fold | RGS16-Gao HTS | Insulin prom inh | Insulin prom inh cell count | PKD1 inh
Cn1c(Cc2csc(N)n2)nnc1SCC(=O)NC1CCCCC1 | -2.9 | i | 1.02 | 102.4 | -71.4 | 113.3 | -9.6
CCCONC(=O)Nc1ccccc1[N+](=O)[O-] | -2.2 | nt | nt | 107.6 | nt | nt | -9.5
Cc1cc2c(N=NC(=O)C3CC3c3ccccc3)c(O)[nH]c2cc1Br (centres undefined) | -1.6 | i | 1.03 | 103.4 | 8.0 | 71.7 | 6.6
O=C(CS(=O)(=O)c1cn(Cc2ccc(F)cc2)c2ccccc12)N1CCCCC1 | -1.3 | i | 1.01 | 29.3 | -13.8 | 70.8 | -10.4
COc1ccc(/C=C/C(=O)O)cc1S(=O)(=O)N1CCC(Cc2ccccc2)CC1 | nt | i | 0.92 | 116.5 | nt | nt | nt
CCn1nc(C)c([N+](=O)[O-])c1C(=O)NNC(=O)c1ccccc1Cl | nt | i | 1.04 | 99.4 | nt | nt | nt
COc1ccc(C(=O)c2ccccc2)c(OCC(=O)NC2CC2)c1 | nt | i | 0.93 | 111.8 | nt | nt | -2.8
COc1ccc(C2C(=O)N(CCc3ccccc3)CC(=O)N2C2CCCC2)cc1 (centres undefined) | -0.7 | i | 0.6 | 94.0 | -57.6 | 83.3 | -1.5
CC(C)Oc1ccccc1C1Nc2ccccc2C(=O)N1c1ccc2c(c1)OCCO2 (centres undefined) | -1.5 | i | 0.91 | 103.0 | 0.0 | 54.7 | -6.6
O=C(NCc1ccccc1Cl)NC(=O)c1csc([N+](=O)[O-])c1 | nt | i | 1.12 | 102.8 | nt | nt | nt
CCCC(C(=O)NCC1CCCO1)N(Cc1ccco1)C(=O)CNS(=O)(=O)c1ccc(F)cc1 (centres undefined) | -1.9 | i | 0.93 | 107.0 | nt | nt | -12.7
Cc1nc(Cl)sc1C(=O)Nc1ccccc1 | -0.3 | nt | nt | 114.2 | 0.0 | 102.8 | -4.8
Cc1nc2ccc([N+](=O)[O-])cc2[nH]1 | nt | i | 1 | 86.8 | 64.3 | 92.1 | 0.4
COc1ccc(CN2C(=O)CCC(C(=O)O)C2c2ccccc2)cc1 (centres undefined) | nt | i | 1.02 | 98.2 | nt | nt | 2.4
COc1cccc(Cn2c(NCc3cccnc3)nc3c2c(=O)n(C)c(=O)n3C)c1 | -2.0 | i | 0.88 | 98.9 | 11.1 | 58.8 | -8.2
O=C(Cn1c(C(=O)N2CCN(C3CCCCC3)CC2)cc2sccc21)c1ccccc1 | -2.2 | i | 0.75 | 95.8 | nt | nt | 9.0
COc1ccc(/C=N\NC(=O)CCN2CCN(c3ccccc3)CC2)cc1OC | -0.9 | i | 0.977 | 94.3 | nt | nt | -4.9
O=C(OCCN1CCN(c2ncc(C(F)(F)F)cc2Cl)CC1)c1ccc(F)cc1 | -2.4 | i | 0.877 | 95.6 | -25.0 | 60.2 | 4.7
COc1ccc2c(C)c(C(=O)NCC(C)O)oc2c1OC (centres undefined) | -0.3 | i | 0.69 | 102.7 | -50.0 | 91.9 | -0.7
Cc1noc(C)c1S(=O)(=O)N1CCC(Cc2ccccc2)CC1 | -0.8 | i | 0.9 | 101.5 | nt | nt | -9.9
O=C(CC(NCCc1ccccc1)C(=O)O)Nc1ccc(O)cc1 (centres undefined) | -1.6 | nt | nt | 80.9 | nt | nt | 0.2
COc1cccc(NC(=O)CN(c2cccc(OC)c2)S(C)(=O)=O)c1 | nt | i | 0.9 | 102.2 | -17.9 | 109.8 | -2.4
C=CCn1c(SCC(=O)NC2CCS(=O)(=O)C2)nnc1-c1ccncc1 (centres undefined) | nt | i | 0.92 | 98.3 | nt | nt | -5.6
COc1ccc(C(=O)NC(=S)NCc2ccco2)cc1 | nt | i | 1.06 | 97.2 | nt | nt | nt

Single records (already shown). Order of screens: GALR2 agonist, HSV replic up, HSV replic up primary fold, RGS16-Gao HTS, Insulin prom inh, Insulin prom inh cell count, PKD1 inh
`O=C(c1ccc(S(=O)(=O)N2CCOCC2)cc1)N1CCN(c2ccccc2F)CC1` as listed: -1.1, i, 1.17, 100.3, -181.8, 78.5, -6.1
`COc1cccc(NC(=O)CN(c2cccc(OC)c2)S(C)(=O)=O)c1` as listed: nt, i, 0.9, 102.2, -17.9, 109.8, -2.4

Carrying on:
compound | GALR2 agonist | HSV replic up | HSV replic up primary fold | RGS16-Gao HTS | Insulin prom inh | Insulin prom inh cell count | PKD1 inh
O=C(Nc1ccon1)c1cnc2sccn2c1=O | -3.5 | i | 0.81 | 98.9 | nt | nt | 2.4
COC(=O)c1cccc(NC(=O)CN2CCOCC2)c1 | -1.1 | i | 1.03 | 107.5 | nt | nt | -0.7
COc1ccccc1Nc1nc(N)nc(CSC(=S)N2CCOCC2)n1 | nt | i | 1.06 | 97.1 | nt | nt | nt
CN1CCN(c2nc(-c3ccccc3)cc(C(F)(F)F)n2)CC1 | -4.4 | i | 0.89 | 95.9 | 16.7 | 108.7 | 4.8
CCOC(=O)Nc1ccc2c(c1)ncn2C1CCCCC1 | -3.2 | i | 0.85 | 112.0 | -5.7 | 148.2 | -4.3
COc1cc(CO)ccc1Oc1nc2ccccc2n2cnnc12 | nt | i | 1.24 | 99.6 | nt | nt | nt
NS(=O)(=O)c1ccc(CCNS(=O)(=O)c2ccc(Cl)nc2)cc1 | nt | i | 0.93 | 99.8 | nt | nt | nt
O=C(O)CCCCCN1C(=O)/C(=C\c2ccc(-c3ccc(Cl)cc3)o2)SC1=S | nt | ? | nt | 101.1 | nt | nt | nt
OC(COCC1COc2ccccc2O1)CN1CCc2ccccc2C1 (centres undefined) | -2.0 | i | 1.06 | 104.5 | -54.5 | 50.6 | -6.1
COc1cccc(C(=O)OC2CCCN(C)C2)c1 (centres undefined) | -2.1 | i | 0.96 | 108.9 | -10.7 | 90.2 | -2.0
O=C(NCCc1ccccc1)c1nc2ncccn2n1 | -1.6 | i | 0.92 | 99.8 | 33.3 | 128.7 | -2.1
CC1CCc2c(sc3ncnc(NS(=O)(=O)c4cccs4)c23)C1 (centres undefined) | nt | i | 1 | 100.7 | 44.4 | 107.5 | 0.7

The list goes on, overlapping the part above by 5 compounds.
compound | GALR2 agonist | HSV replic up | HSV replic up primary fold | RGS16-Gao HTS | Insulin prom inh | Insulin prom inh cell count | PKD1 inh
O=C(O)CCCCCN1C(=O)/C(=C\c2ccc(-c3ccc(Cl)cc3)o2)SC1=S | nt | ? | nt | 101.1 | nt | nt | nt
OC(COCC1COc2ccccc2O1)CN1CCc2ccccc2C1 (centres undefined) | -2.0 | i | 1.06 | 104.5 | -54.5 | 50.6 | -6.1
COc1cccc(C(=O)OC2CCCN(C)C2)c1 (centres undefined) | -2.1 | i | 0.96 | 108.9 | -10.7 | 90.2 | -2.0
O=C(NCCc1ccccc1)c1nc2ncccn2n1 | -1.6 | i | 0.92 | 99.8 | 33.3 | 128.7 | -2.1
CC1CCc2c(sc3ncnc(NS(=O)(=O)c4cccs4)c23)C1 (centres undefined) | nt | i | 1 | 100.7 | 44.4 | 107.5 | 0.7
COCCSc1nnc(NC(=O)C2CC(=O)N(c3ccc(OC)cc3)C2)s1 (centres undefined) | nt | nt | nt | 100.5 | -7.7 | 100.0 | -3.0
Cc1cc(/C=C(\C#N)C(=O)Nc2ccccc2F)c(C)[nH]1 | nt | i | 0.88 | 94.7 | nt | nt | 0.0
Cc1ccc(-c2nn[nH]n2)cc1Cl | nt | i | 1.1 | 104.5 | nt | nt | nt
O=C(NC(=O)c1ccc(Cl)c(Cl)c1)OC1CCS(=O)(=O)C1 (centres undefined) | -0.5 | i | 1 | 100.2 | -180.8 | 92.8 | -12.3
COc1ccccc1C1CC(c2ccc(C)cc2)Nc2ncnn21 (centres undefined) | -2.5 | i | 0.89 | 105.2 | -7.1 | 91.9 | 4.0
O=C(/C=C/c1ccc(O)c(O)c1)c1ccc(S(=O)(=O)N2CCCCCC2)cc1 | -0.7 | i | 0.79 | 88.0 | 7.1 | 119.7 | 1.9
O=C(NNc1c(Cl)cccc1Cl)c1sccc1Cl | nt | i | 0.93 | 99.0 | nt | nt | nt
COC(=O)/C(C#N)=C1/C=Cc2ccccc2N1 | nt | i | 0.81 | 109.1 | -18.2 | 95.1 | 1.8
Cc1ccc(S(=O)(=O)NCc2nnc(SCC(=O)Nc3cccc(C)c3C)n2C)cc1 | -2.2 | i | 0.8 | 104.6 | -34.3 | 105.6 | 6.8
Cc1ccc(NC(=O)C2CCCN(S(=O)(=O)c3c(C)noc3/C=C/N(C)C)C2)cc1F (centres undefined) | -1.0 | i | 0.89 | 101.7 | -15.6 | 105.6 | -15.2
Cc1ccnc(SCC(=O)N2CCN(c3ccccc3)CC2)n1 | -2.2 | i | 0.94 | 98.8 | 14.3 | 117.6 | -1.3
Cc1nn(C)c2ncc(C(N)=O)c(Oc3ccc(Cl)cc3)c12 | nt | i | 1.06 | 103.8 | nt | nt | nt
CCc1ccc(NC(=O)CNC(=O)c2cn(-c3ccccc3OC)c(=O)c3ccccc23)cc1 | -1.1 | i | 0.91 | 106.8 | -20.7 | 109.8 | -1.2
CC(=O)Nc1ccccc1OCC(=O)NCCC1=CCCCC1 | nt | i | 1.07 | 108.9 | 9.1 | 160.6 | -3.8
CC(C)Oc1ccc(C(=O)Nc2ccc([N+](=O)[O-])cc2)cc1 | nt | i | 1.06 | 103.3 | 17.6 | 112.7 | 3.0
CCOC(=O)C1(CCCc2ccccc2)CCN(C(=O)c2cnc(C)cn2)CC1 | nt | i | 1.06 | 100.7 | nt | nt | -7.4
O=C(N/N=C1\CCCc2ccccc21)c1cccc([N+](=O)[O-])c1 | -2.3 | i | 1.01 | 98.1 | 14.3 | 132.1 | 6.3

Screening data from PubChem.
